Mtb growth: M. tuberculosis H37Rv growth inhibitors, H37Rv strain (AID 1626) | one-dose inhibition, % at 10 µM; IC50 in µM for titrated hits | M. tuberculosis H37Rv growth inhibition; higher % means a stronger effect | 0.95% of 220,000 active;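 active means confirmed in a dose series; inconclusive means inhibition above 80% but not taken into the dose series; inactive means below 80% or under 30% at every dose of the series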;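 further: bacteria incubated seven days before Alamar blue readout; 0% = bacteria only wells and 100% = bacteria with antibiotic wells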
RecA splice inh: Mtb RecA intein splicing inhibition; P9WHJ3; cell-free RecA intein splicing, fluorescence; inhibition, %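 (about 9 µM by stock and volumes)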; 0.75% of 290,000 active; AID 2221; in the data active means inhibition above about 30%; inconclusive means no clear call, values can overlap the other calls;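 further: 0% = vehicle wells and 100% = reference inhibitor control wells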
Target sequence (P9WHJ3 whole entry, looked up, canonical isoform): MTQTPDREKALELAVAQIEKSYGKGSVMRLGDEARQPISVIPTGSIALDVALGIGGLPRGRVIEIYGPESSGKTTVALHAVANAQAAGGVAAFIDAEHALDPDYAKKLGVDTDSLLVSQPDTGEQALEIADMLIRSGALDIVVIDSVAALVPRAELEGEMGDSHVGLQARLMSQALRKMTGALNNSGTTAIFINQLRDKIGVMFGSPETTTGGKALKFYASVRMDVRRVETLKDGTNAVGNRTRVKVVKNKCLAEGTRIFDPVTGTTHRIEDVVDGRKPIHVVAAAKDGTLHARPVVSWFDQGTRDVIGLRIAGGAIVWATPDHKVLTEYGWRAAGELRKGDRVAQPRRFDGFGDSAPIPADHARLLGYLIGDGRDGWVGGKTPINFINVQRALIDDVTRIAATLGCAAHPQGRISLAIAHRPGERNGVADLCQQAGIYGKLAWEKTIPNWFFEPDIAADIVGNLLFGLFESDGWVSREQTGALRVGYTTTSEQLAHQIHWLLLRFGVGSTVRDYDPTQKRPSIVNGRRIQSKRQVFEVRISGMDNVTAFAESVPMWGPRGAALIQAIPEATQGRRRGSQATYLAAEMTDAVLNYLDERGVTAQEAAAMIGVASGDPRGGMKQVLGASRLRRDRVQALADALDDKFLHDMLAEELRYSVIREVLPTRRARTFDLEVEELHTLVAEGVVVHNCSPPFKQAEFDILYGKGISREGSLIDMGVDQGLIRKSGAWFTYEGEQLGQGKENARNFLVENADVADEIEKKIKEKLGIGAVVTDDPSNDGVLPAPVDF
YopH PTP inh: YopH (Yersinia) phosphatase inhibition; inhibition, %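 (about 10 µM by stock and volumes)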; 0.16% of 140,000 active; AID 898; fluorescence Ex485/Em525;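 active means inhibition of 50% or more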;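 further: controls were vehicle for no effect and minimum signal wells for full effect; inactives centre near -20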
Arbovirus inh: antivirals against arbovirus infection; arbovirus infection cell-based antiviral screen; inhibition, % at 10 µM; AID 1251; 0.37% of 200,000 active;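 active means inhibition from about 30%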;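 further: bluetongue infection of BSR cells; cell survival read as ATP light after 72 h; 0% = infected wells without compound and 100% = uninfected wells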
Mtb betalactam: beta-lactam sensitization of Mtb H37Rv. M. tuberculosis H37Rv growth with meropenem, percent inhibition; hits of this screen are not shown here. 0.27% of 330,000 active. inhibition, % at 25 µM;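 active means about 74% or more and at least 40 points above the plate without the antibiotic, then above 30% in a dose series; inconclusive means first-round hits that could not be retested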;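 further: growth measured after seven days incubation then overnight dye step; 0% = bacteria only wells and 100% = bacteria with antibiotic; twin plates without the antibiotic show which effects depend on it; some results filed as inactive read as strong as hits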
Arbovirus inh repeat: second read-out of Arbovirus inh, no call of its own (marks repeat the call); inhibition, %; measured here: 10K subset replicate screen; many hits read low in the repeat;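 first of two repeat runs on a subset; 0% = infected and 100% = uninfected wells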
The depositor's hits bear a star. A portion of the library; the hit share may differ from the screen's.

What do the screens show for `Cn1c(N2CCOCC2)nc2c1c(=O)n(Cc1ccc(Cl)c(Cl)c1)c(=O)n2C`?
Mtb growth: 11.2%; YopH PTP inh: 30.8; Arbovirus inh: 12.0; Mtb betalactam: -0.8

Results for COCCNc1oc(-c2ccc(C)cc2)nc1C#N ?
RecA splice inh: -0.5; YopH PTP inh: -4.2; Arbovirus inh: -3.8; Mtb betalactam: 2.1

What do the screens show for `O=c1[nH]c(=S)n(C2CC2)c(O)c1/C=N/Nc1cccc2ccccc12`?
Mtb growth: -3.5%; RecA splice inh: -2.4; YopH PTP inh: 22.7; Arbovirus inh: 0.6; Mtb betalactam: -1.6

What do the screens show for `CCOC(=O)/C(=C\c1ccc([N+](=O)[O-])cc1)C(=O)c1cc(C(C)=O)c(Nc2ccccc2)s1`?
Mtb growth: 6.0%; RecA splice inh: 4.3; YopH PTP inh: -15.3; Arbovirus inh: -38.2; Mtb betalactam: 19.9

Results for C/C(=C\C(=O)c1ccc(C)o1)Nc1ccc2c(c1)OCO2 ?
Mtb growth: >100µM*; RecA splice inh: 5.0; YopH PTP inh: -29.2; Arbovirus inh: -14.1; Mtb betalactam: 93.6

Results for O=c1c2cn[nH]c2nc(SCc2ccccc2F)n1-c1ccc(Br)cc1 ?
Mtb growth: 13.8%; RecA splice inh: 21.9; YopH PTP inh: -27.9; Arbovirus inh: -22.9; Mtb betalactam: 5.4

How did CC(C)(C)NC(=O)C(c1ccncc1)N(C(=O)Cn1nnc(-c2ccc(F)cc2)n1)c1cccc(F)c1 (stereo unspecified) do in these assays?
Mtb growth: 0.0%; RecA splice inh: 1.3; Arbovirus inh: 3.8; Mtb betalactam: -2.7

How did O=C(COC(=O)CCc1ccccc1)NC(c1ccccc1)c1ccccc1 do in these assays?
Mtb growth: 5.6%; RecA splice inh: 4.7; YopH PTP inh: -13.8; Arbovirus inh: 4.7; Mtb betalactam: 1.9

What do the screens show for `C=CCN1C(=O)CSc2ccc(C(=O)NCCC3=CCCCC3)cc21`?
Mtb growth: -5.5%; RecA splice inh: 5.7; YopH PTP inh: -1.4; Arbovirus inh: 13.0; Mtb betalactam: -1.1

Results for CC(=O)c1nn(-c2cccc(Br)c2)cc1C(=O)c1ccc(Br)cc1 ?
Mtb growth: -3.4%; RecA splice inh: -4.5; YopH PTP inh: -27.2; Arbovirus inh: -17.7; Mtb betalactam: 0.3

What do the screens show for `CN1C(=O)NC(c2ccc(O)cc2)C2=C1CN(c1ccccc1)C2=O` (stereo unspecified)?
Mtb growth: -1.6%; RecA splice inh: -3.2; Mtb betalactam: 1.6

What do the screens show for `CCOc1ccc(/C=C(\C#N)C(=O)Nc2ccccn2)cc1`?
RecA splice inh: 0.3; Mtb betalactam: 1.9

What do the screens show for `CCOc1ccc(N2C(=O)c3cccnc3C2Nc2ccc(OC)cc2)cc1` (stereo unspecified)?
Mtb growth: 76.9%; RecA splice inh: 3.9; YopH PTP inh: -42.2; Arbovirus inh: 1.1

Results for O=C(COc1nsnc1N1CCOCC1)Nc1ccc([N+](=O)[O-])cc1 ?
RecA splice inh: 1.2; Mtb betalactam: -4.2

What do the screens show for `O=C(CCCCCn1c(=O)[nH]c2ccccc2c1=O)NCCCN1CCN(c2ccccc2F)CC1`?
RecA splice inh: -2.2; YopH PTP inh: -47.3; Arbovirus inh: -6.5; Mtb betalactam: 33.8

What do the screens show for `Cc1cc(OCC(=O)NCC(O)c2ccccc2)c2c(C)c(C)c(=O)oc2c1` (stereo unspecified)?
RecA splice inh: 0.1; Mtb betalactam: -2.6

Results for COc1ccc(-n2c(=O)c3ccccc3n(CC(=O)NC3CCCC3)c2=O)c(OC)c1 ?
Mtb growth: -1.7%; RecA splice inh: 0.3; YopH PTP inh: -23.4; Arbovirus inh: 0.5; Mtb betalactam: 2.3; Arbovirus inh repeat: -0.9

What do the screens show for `CC1CCCC(C)N1/N=C/c1cc(Br)c(O)c(Br)c1` (stereo unspecified)?
Mtb growth: 1.3%; RecA splice inh: 0.5; YopH PTP inh: -30.1; Arbovirus inh: -1.7; Mtb betalactam: 8.0

How did CCCCc1c(O)nc(SCC(=O)c2ccccc2)n(-c2ccccc2)c1=O do in these assays?
Mtb growth: 0.5%; RecA splice inh: 2.6; Mtb betalactam: 1.5

What do the screens show for `C/C(=N\NC(=O)C1(C)CC1(Br)Br)c1ccc(NC(=O)c2ccc(C)o2)cc1` (stereo unspecified)?
Mtb growth: 6.9%; RecA splice inh: 4.1; YopH PTP inh: -18.2; Arbovirus inh: 10.6; Mtb betalactam: 11.0

Results for O=C(CSc1nnc(-c2ccccn2)n1Cc1ccco1)c1ccc(-c2ccccc2)cc1 ?
Mtb growth: 0.9%; YopH PTP inh: -4.7; Arbovirus inh: -6.5; Mtb betalactam: -4.6

What do the screens show for `CCC(Oc1cccc(Cl)c1)C(=O)N1CCCN(C)CC1` (stereo unspecified)?
RecA splice inh: 3.0; Mtb betalactam: -14.0

Results for Nc1nc(-c2ccc(NC(=O)c3ccco3)cc2)cs1 ?
RecA splice inh: 0.0; Mtb betalactam: 1.9

Results for CCCCCn1c(=O)[nH]c2cc(C(=O)NCCN3CCC(C)CC3)ccc2c1=O ?
RecA splice inh: -1.6; Mtb betalactam: 1.5

Results for N/C(=N\OCC(=O)Nc1ccccc1)c1nonc1N ?
Mtb growth: -7.8%; RecA splice inh: 1.5; YopH PTP inh: -27.7; Arbovirus inh: 4.9; Mtb betalactam: 3.0

How did CC/C(=N\NC(=O)c1ccc(N2CCCC2=O)cc1)c1ccccc1 do in these assays?
RecA splice inh: -0.1; Mtb betalactam: -4.5

How did CCn1c(O)c(N=NC(=O)CNC(=O)Cc2ccccc2)c2ccccc21 do in these assays?
RecA splice inh: 1.8; Mtb betalactam: -4.7

What do the screens show for `COc1ccc(N2CCN(C(=O)c3ccc(C)cc3)CC2)c([N+](=O)[O-])c1`?
Mtb growth: -5.0%; RecA splice inh: 2.2; YopH PTP inh: -20.2; Arbovirus inh: -1.8; Mtb betalactam: 2.5

Results for Cn1nc2c3ccccc3n(Cc3ccccc3)c2nc1=S ?
Mtb growth: 5.2%; RecA splice inh: 0.5; Mtb betalactam: -1.7

How did CC(C)CC1(C(=O)NCCN2CCOCC2)C=CCN1C(=O)c1ccccc1 (stereo unspecified) do in these assays?
Mtb growth: -14.7%; RecA splice inh: -0.3; YopH PTP inh: -11.5; Arbovirus inh: 5.8; Mtb betalactam: -8.2

Results for CCOC(=O)N1CCN(C(=O)c2cc(OC)cc(OC)c2)CC1 ?
Mtb growth: -6.5%; RecA splice inh: 1.2; YopH PTP inh: 2.7; Arbovirus inh: 4.7; Mtb betalactam: 11.4

How did O=C(CCN1CCN(CCO)CC1)Nc1ccc(Br)cc1 do in these assays?
Mtb growth: -6.7%; Arbovirus inh: 2.9; Mtb betalactam: 5.4

How did O=C(CCC(=O)OCC(=O)c1cccc([N+](=O)[O-])c1)NC1CCCCC1 do in these assays?
Mtb growth: -3.4%; RecA splice inh: -4.6; Mtb betalactam: -5.3

How did CCOC(=O)c1ccc(N=c2sc(C(=O)OC)cc(=O)n2-c2ccc(C(=O)OCC)cc2)cc1 do in these assays?
Mtb growth: 63.5%; RecA splice inh: 3.9; YopH PTP inh: -24.9; Arbovirus inh: -32.8; Mtb betalactam: 91.7

How did COc1ccc(OC)c2c1sc(=NC(=O)C1COc3ccccc3O1)n2C (stereo unspecified) do in these assays?
Mtb growth: -3.2%; RecA splice inh: 0.5; Mtb betalactam: -0.7

Results for O=C1c2cccc3cccc(c23)C(=O)N1c1nccs1 ?
Mtb growth: -6.1%; RecA splice inh: 0.8; YopH PTP inh: -51.1; Arbovirus inh: 15.4; Mtb betalactam: inconclusive; Arbovirus inh repeat: 4.2

Results for CCCSc1nc2sc3c(c2c(=O)n1CC)CC(C)(C)OC3 ?
Mtb growth: -1.5%; RecA splice inh: 3.6; Mtb betalactam: 0.3

How did Oc1[nH]c2ccccc2c1N=Nc1nc(Nc2ccccc2)nc(N2CCOCC2)n1 do in these assays?
Mtb growth: 5.7%; RecA splice inh: 2.3; Mtb betalactam: -2.5

Results for CN(C)CCCNCCCNC(=O)c1ccccn1 ?
Mtb growth: -9.6%; RecA splice inh: 0.6; YopH PTP inh: 1.4; Arbovirus inh: -0.1; Mtb betalactam: -7.5

How did Cc1ccc(C)c2sc(N)nc12 do in these assays?
Mtb growth: -1.5%; RecA splice inh: -1.1; Arbovirus inh: 0.6; Mtb betalactam: 8.6

What do the screens show for `CCc1ccc(S(=O)(=O)Nc2c(C)n(C)n(-c3ccccc3)c2=O)cc1`?
RecA splice inh: 2.4; Mtb betalactam: -0.5

What do the screens show for `CN(C)C1(CNC(=O)Nc2ccc(Cl)c(Cl)c2)CCCCC1`?
RecA splice inh: 0.1; Mtb betalactam: 99.8

What do the screens show for `Cc1cccc([C@@H]2[C@@H]3C(=O)N(Cc4ccccc4)C(=O)[C@@H]3[C@]3(CC(C)C)C(=O)N(c4cccc(F)c4)C(=O)N23)c1`?
RecA splice inh: 7.1; Mtb betalactam: -5.7

Results for CS(=O)(=O)N(CC(=O)Nc1c(F)cccc1F)c1cccc([N+](=O)[O-])c1 ?
Mtb growth: 4.2%; RecA splice inh: -1.8; YopH PTP inh: -33.1; Arbovirus inh: 0.6; Mtb betalactam: -14.5

Results for Cc1ccc(N/C=C/C(=O)c2ccc(C)cc2)cc1 ?
Mtb growth: 85.6%; RecA splice inh: 2.6; YopH PTP inh: -20.6; Arbovirus inh: 0.5; Mtb betalactam: 66.9

Results for COCC(C)n1c(SCC(=O)c2cc(C)n(C)c2C)nc2ccccc2c1=O (stereo unspecified) ?
Mtb growth: 1.9%; RecA splice inh: -1.5; Arbovirus inh: 2.1; Mtb betalactam: -3.0

Results for c1cn2cc(CN3CCOCC3)nc2s1 ?
Mtb growth: -7.3%; RecA splice inh: 0.9; YopH PTP inh: -34.3; Arbovirus inh: 1.0; Mtb betalactam: -1.3

How did Cc1ccc(C(=O)N/C(=C/c2ccco2)C(=O)NCCCn2ccnc2)cc1 do in these assays?
Mtb growth: -14.9%; RecA splice inh: -3.0; YopH PTP inh: -14.1; Arbovirus inh: 8.0; Mtb betalactam: -2.7

How did CCS(=O)(=O)c1ccc2oc(SCC(=O)NC(C)C3CC4CCC3C4)nc2c1 (stereo unspecified) do in these assays?
Mtb growth: -8.9%; RecA splice inh: 1.1; YopH PTP inh: -19.4; Arbovirus inh: -1.8; Mtb betalactam: -7.2

What do the screens show for `Cc1[nH]nc2c1[C@@H](c1ccccc1[N+](=O)[O-])C(C#N)=C(N)O2`?
RecA splice inh: -0.3; Mtb betalactam: 10.2

Results for COc1ccc(CCNc2oc(Cc3ccccc3)nc2C#N)cc1OC ?
Mtb growth: 3.4%; RecA splice inh: -3.1; YopH PTP inh: -20.1; Arbovirus inh: 3.8; Mtb betalactam: -3.6

How did COc1ccccc1N1C(=O)CC(N2CCN(c3ccc(Cl)cc3)CC2)C1=O (stereo unspecified) do in these assays?
RecA splice inh: 1.8; Mtb betalactam: -6.5

What do the screens show for `CCOc1cc(/C=C2/NC(=O)N(Cc3ccccc3F)C2=O)ccc1O`?
Mtb growth: 6.6%; RecA splice inh: -5.0; YopH PTP inh: -18.8; Arbovirus inh: -6.6; Mtb betalactam: 2.0

Results for Fc1cccc(Cl)c1CSc1nnc(-c2ccncc2)o1 ?
RecA splice inh: 0.7; Mtb betalactam: 7.6

What do the screens show for `CCCSc1nnc2[nH]c(=O)cc(N)n12`?
Mtb growth: -11.8%; RecA splice inh: 0.1; YopH PTP inh: 3.6; Arbovirus inh: -3.5; Mtb betalactam: -0.3

Results for COc1c(F)c(F)c(C(=O)Nc2cccc(Cl)c2N2CCOCC2)c(F)c1F ?
Mtb growth: 2.0%; YopH PTP inh: -13.9; Arbovirus inh: -3.6; Mtb betalactam: -1.9

How did CCN1CCN(C(=O)c2ccc(-c3nc4ccccc4s3)s2)CC1 do in these assays?
Mtb growth: 0.4%; RecA splice inh: 1.3; Arbovirus inh: -26.1; Mtb betalactam: -3.8

Screens (PubChem)
